eIF4H inh: inhibitors of RNA binding by human eIF4H. Q15056. eIF4H fluorescence polarization binding assay. inhibition, % at 35 µM. hit rate 0.94% among 290,000;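 active means 50% or more with normal probe brightness, or confirmed in later tests; inconclusive means above 50% with abnormal brightness, or retests that disagree; inactive means below 50% or failed in later tests; about a fifth of its hits are not listed in these tables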;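 further: calls also rest on retests at 20 µM and on dose response follow-up; 0% = protein and probe with vehicle and 100% = probe without protein; strong numbers were not always called active; many hits fall short of the cut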
CSC inhib: blocks cancer stem cells. AID 2717. hit rate 1.1% among 300,000. cancer stem cell-like cells viability, luminescence. inhibition, % at 7.5 µM;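 active means mean at 75% or more and at least half the replicates too; inconclusive means mean and replicates disagree; tested in HMLE shEcad cells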;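 further: 0% = median of negative and 100% = median of positive control wells; the first replicate is given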
HIV Env fusion: HIV envelope-mediated fusion inhibition | inhibition, % at 12.3 µM | hit rate 1.1% among 360,000 | HeLa-JRFL Env/CEM21 cell fusion, luciferase;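 active means mean replicate inhibition score of at least 50 and every replicate individually at or above 50; inconclusive means only one of the two criteria met; inactive means mean below 50 and not all replicates reaching 50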;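 further: 0% = plate neutral controls and 100% = maraviroc near 300 nM; one replicate is shown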
PABP polyA inh: PABP-poly(A) binding inhibition; PABP-poly(A) RNA binding, fluorescence polarization; inhibition, % at 35 µM; P11940; hit rate 1% among 290,000;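 active means 50% or more with normal probe brightness, or confirmed in later tests; inconclusive means above 50% with abnormal brightness, or retests that disagree; inactive means below 50% or failed in later tests; about a fifth of its hits are not listed in these tables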;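 further: calls also rest on retests at 20 µM and on dose response follow-up; controls were probe without protein and protein plus probe with vehicle; some compounds called inactive have numbers as strong as hits; many hits fall short of the cut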
Target sequence (P11940 whole entry, looked up): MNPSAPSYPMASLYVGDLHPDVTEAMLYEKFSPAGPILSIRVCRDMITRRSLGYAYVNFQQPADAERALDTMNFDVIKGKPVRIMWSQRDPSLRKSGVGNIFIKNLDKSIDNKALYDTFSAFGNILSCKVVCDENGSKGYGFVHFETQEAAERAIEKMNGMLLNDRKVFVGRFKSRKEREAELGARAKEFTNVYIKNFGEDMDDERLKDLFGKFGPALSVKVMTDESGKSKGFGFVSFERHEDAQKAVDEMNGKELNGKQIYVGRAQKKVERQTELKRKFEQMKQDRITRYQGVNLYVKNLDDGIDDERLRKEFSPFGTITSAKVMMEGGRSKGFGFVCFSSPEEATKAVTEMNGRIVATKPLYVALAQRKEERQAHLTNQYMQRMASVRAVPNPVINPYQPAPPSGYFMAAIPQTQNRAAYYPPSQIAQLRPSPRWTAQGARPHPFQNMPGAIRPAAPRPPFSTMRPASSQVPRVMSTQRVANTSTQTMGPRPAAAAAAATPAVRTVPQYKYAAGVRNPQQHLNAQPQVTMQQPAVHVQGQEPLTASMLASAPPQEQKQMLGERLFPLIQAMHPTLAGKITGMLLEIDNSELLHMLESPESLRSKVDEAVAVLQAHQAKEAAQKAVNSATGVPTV
Rce1 inh: blocks yeast Ras-converting enzyme; Q03530; yeast membranes, quenched prenylated peptide cleavage fluorescence; calls only; hit rate 0.27% among 290,000; AID 2563;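 active means fall in fluorescence gain of 50% or more versus controls, with final raw signal at or below 3038400; inconclusive means same 50% fall but final raw signal above 3038400; inactive means fall in fluorescence gain under 50%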;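 further: plate controls were neutral control wells for no effect and wells lacking membranes for full effect; tested at 10 µM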
UUG fidelity: modulators of start codon recognition fidelity in yeast | S. cerevisiae UUG-firefly luciferase reporter, luminescence/redox ratio | activity score, % at 18.7 µM | hit rate 0.13% among 350,000 | AID 602363;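 active means replicate mean at a twofold rise or more, about +100% in these data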;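 further: firefly luciferase made from a UUG start codon reports start codon fidelity; reporter light over untreated wells divided by growth signal over untreated wells; some hits fall short of that in this replicate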
MT1-MMP act inh: inhibitors of human MT1-MMP activation. P50281. HT1080 RFP-PRO-GFP cells, GFP/RFP ratio fluorescence, overnight; percent of plate control window, DMSO zero. GFP/RFP ratio change, % at 20 µM. hit rate 0.061% among 360,000. AID 651647;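 active means GFP/RFP ratio change of at least 30% with cell ATP level not reduced by more than half and red fluorescence within 50% of control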; further: strong numbers were not always called active
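Assay system: HT1080 RFP-PRO-GFP cells | Dosing: 20 µM single dose, 1% DMSO | Incubation: Cells overnight before dosing, compound overnight, 37 °C, 5% CO2 | Evaluation: GFP/RFP fluorescence ratio | Control set: DMSO-only wells and HT1080 RFP-L50D-GFP cell wells as references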
eIF4H inh retest: recorded beside eIF4H inh, whose call it bears; inhibition, %; compound at 20 µM; confirmation average;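 mean of two retest wells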
PABP polyA inh retest: second read-out of PABP polyA inh, no call of its own (marks repeat the call); inhibition, %; compound at 20 µM; confirmation repeats;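 mean of two retest wells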
MT1-MMP act inh RFP: second read-out of MT1-MMP act inh, no call of its own (marks repeat the call); RFP signal change, %; measured here: RFP expression control read;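 0 = vehicle wells; hits needed this value within 50% of zero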
* hit, by the source's call; i = inactive; ? = inconclusive; / = no result given; & = joins results of further samples.

SMILES	eIF4H inh	CSC inhib	HIV Env fusion	PABP polyA inh	Rce1 inh	UUG fidelity	MT1-MMP act inh	MT1-MMP act inh RFP	others
COc1ccccc1N1CCN(C(=O)CN(CCc2ccccc2)S(C)(=O)=O)CC1	-7	4	-18	-12	i	5	-2	-8
Cc1ccc2nc(Nc3ccccc3)cc(C)c2c1	12	28	-1	-4	i	-13	4	-5
Cc1nnc2ccc(-c3ccc(NC(=O)c4ccc(Cl)nc4)cc3)nn12	1	-21	/	2	i	/	/	/
CCn1cc(CN2CCc3c([nH]c4ccccc34)C2c2cccc(O)c2)c(C)n1 (stereo unspecified)	5	-3	-5	1	i	-8	-4	2
CCN(CC)CC#CCC(O)(c1ccccc1)C1CCCC1 (stereo unspecified)	-8	3	/	-3	i	-13	2	1
C[C@@H]1CN([C@@H](C)CO)C(=O)CCCn2nncc2CO[C@H]1CN(C)C(=O)c1cc(-c2ccccc2)on1	/	/	-2	/	/	0&-6	2	4
CCCOC(=O)c1c(NC(=O)CCCn2nc([N+](=O)[O-])cc2C)sc(C(=O)OC)c1C	-6	-9	-20	7	i	/	-5	-3
CCOc1ccccc1CNC(=O)C1CCCN(c2nnc(C)c3c(C)n(-c4ccccc4)nc23)C1 (stereo unspecified)	-10	-27	33	-11	i	-1	-17	-8
Cc1ccc(Cl)c(OCC(=O)Nc2ccccc2N2CCCCC2)c1	/	-14	4	/	i	-6	-3	1
O=C(O)C1(P(=O)(c2ccccc2)c2ccccc2)CCCC1	-9	4	-25	3	i	-1	-2	2
COc1ccccc1NC(=O)c1cc2c(CO)cnc(C)c2oc1=Nc1cc(OC)c(OC)c(OC)c1	9	12	18	10	i	10	4	3
Cc1nc2c3cc(F)ccc3n(CCN3CCCCC3)c2s1	-8	65	-28	1	i	-9	1	-4
O=C(NCC(c1ccc(F)cc1)N1CCOCC1)c1ccco1 (stereo unspecified)	/	-11	12	/	i	-19	2	2
CSCCC(NC(=O)c1cccc(C)c1)C(=O)O (stereo unspecified)	5	-12	-1	1	i	/	-3	1
Oc1ccc(Nc2nc(N3CCCC3)c3ccccc3n2)cc1	4	/	-150	-9	i	-1	10	-3
COc1ccc(-c2noc(CN(C)C3CCOCC3)n2)cc1	4	-7	10	-13	i	/	1	6
CC(C)OCC(O)CN (stereo unspecified)	4	-17	-19	10	i	-8	2	2
Cc1oc2cc3oc(=O)c(CC(=O)NCC(=O)N[C@@H](C(=O)O)c4ccccc4)c(C)c3cc2c1C	-3	-13	/	8	/	-12	-2	-1
CC1(C)Cc2c(cnn2-c2ccc(F)cc2)C(NC(=O)c2ccc(=O)oc2)C1 (stereo unspecified)	-11	-1	8	-13	i	-7	2	6
NC(=O)NC(=O)COC(=O)c1cccc(NS(=O)(=O)/C=C/c2ccccc2)c1	1	-6	1	-6	i	/	3	-2
CNC(=O)CSc1nnc(COc2ccc(Cl)cc2)n1CCOC	0	-4	16	-6	i	-18	6	7
Cc1cc(NC(=O)C(C)SCC(=O)Nc2ccc(C(=O)OC(C)C)cc2)no1 (stereo unspecified)	/	/	-19	/	/	-8	-2	-3
CCC(C)NC(=O)c1ccc(NC(=O)C2CCCO2)cc1 (stereo unspecified)	-5	19	-27	1	i	0	-7	-1
Cc1nc(C)c(Oc2ccc(Cl)cc2Cl)c(=O)[nH]1	-17	0	1	-5	i	/	-2	-3
CCn1c(O)c(/C=N/N=C/c2ccc(OC)cc2)c2cc(C3=NNC(=O)CC3)ccc21	?	5	-3	?	i	-14	-9	0

Gathered by group, the compounds so far containing an NH in an aromatic ring
SMILES	eIF4H inh	CSC inhib	HIV Env fusion	PABP polyA inh	Rce1 inh	UUG fidelity	MT1-MMP act inh	MT1-MMP act inh RFP	others
CCn1cc(CN2CCc3c([nH]c4ccccc34)C2c2cccc(O)c2)c(C)n1 (stereo unspecified)	5	-3	-5	1	i	-8	-4	2
Cc1nc(C)c(Oc2ccc(Cl)cc2Cl)c(=O)[nH]1	-17	0	1	-5	i	/	-2	-3

Remaining list, next part.
SMILES	eIF4H inh	CSC inhib	HIV Env fusion	PABP polyA inh	Rce1 inh	UUG fidelity	MT1-MMP act inh	MT1-MMP act inh RFP	others
CN1CCN(S(=O)(=O)c2cccc3nsnc23)CC1	3	-12	5	-1	i	-14	0	3
Cc1ccc(-n2c(=S)[nH]c3[nH]ncc3c2=O)cc1	-8	-1	-11	1	i	/	1	0
CCN(C(=O)COC(=O)C1CCN(S(=O)(=O)c2ccc3c(c2)OCCO3)CC1)C1CCCCC1	/	-12	2	/	i	6	0	1
CC(=O)NN1C(=O)/C(=C\c2ccc(Cl)cc2)SC1=S	8	19	0	-4	i	/	8	8
Cc1c(C(=O)NCCc2ccc(S(N)(=O)=O)cc2)cccc1[N+](=O)[O-]	17	2	-7	4	i	/	3	1
COc1ccc(COC(=O)CCNC(=O)c2ccc(Cl)cc2)cc1	/	1	0	/	i	-11	-2	2
CC(C)(C)c1ccc(Oc2ccc(NC(=O)C3CC=CCC3C(=O)O)cc2)cc1 (stereo unspecified)	14	80*	-15	-15	i	-8	-11	-13
COc1ccccc1-c1nnc(SCc2ccccn2)n1C	-4	2	-25	5	i	-24	-1	1
COc1ccc(-n2ccnc(SCC(=O)NC3CCCCC3)c2=O)cc1	-9	-3	/	-4	i	-10	3	-4
CCOC(=O)c1c(C)[nH]c2cc(Br)c(O)cc12	-5	-3	-337	5	i	-5	14	3
Fc1ccc(C2CCCN2Cc2nc(-c3cnccn3)no2)cc1 (stereo unspecified)	-6	36	4	-1	i	/	-4	-5
CC(C)Cc1ccccc1S(N)(=O)=O	0	-7	-6	-2	i	20	2	4
O=C(COC(=O)c1ccc(F)c(S(=O)(=O)N2CCOCC2)c1)NCc1ccc(Cl)cc1	/	-9	-8	/	/	-10	1	-1
CCCCCCCCCn1c2c(c(=N)c3c1CCC3)CCC2	-4	56	/	-4	i	-4	-17	-29
CCCCn1c(N)c(N(CC(C)C)C(=O)c2ccc(-c3ccc(C(C)=O)cc3)o2)c(=O)[nH]c1=O	/	0	-12	/	i	-5	-5	-3
Cc1ccc(C)c(OCC(=O)Nc2ccccc2C(=O)NC2CC2)c1	-2	-18	/	-8	i	-18	-2	0
Cn1c(NCc2cccnc2)nc2cc(-c3cccc(C(F)(F)F)c3)sc2c1=O	/	/	3	/	/	-14	4	-6
N/C(CC(=O)Nc1cc(C(F)(F)F)ccc1Cl)=N\O	3	-3	-6	1	i	-21	-4	0
Oc1ccccc1C1=NCCNC(C(F)(F)C(F)F)=C1	0	5	21	-13	i	-15	1	3
c1ccc(COc2cccc(CN3CCN(c4ccccn4)CC3)c2)cc1	-3	-9	44	-3	i	3	-6	-3
COCCNC(=O)NC12CC3(C)CC(C)(CC(C)(C3)C1)C2	3	6	18	-12	i	/	5	7
Cc1cc(NC(=O)COC(=O)CCNS(=O)(=O)c2c(Cl)cccc2Cl)no1	-1	-17	2	1	i	-17	-7	0
CC1=C(C(=O)OCc2ccccc2)C(c2cccc(Cl)c2Cl)NC(=O)N1CCCCCC(=O)O (stereo unspecified)	-6	-8	5	9	i	-10	9	1
Cc1ccc(S(=O)(=O)N2Cc3ccccc3CC2C(=O)Nc2ccc3c(c2)OCO3)cc1 (stereo unspecified)	58	11	/	32	i	-7	-2	-5	eIF4H inh retest=-3;PABP polyA inh retest=1
Cc1occc1C(=O)Nc1ccc(OCc2ccccc2)cc1	11	90*	-53	-8	i	/	-5	-11

(listing goes on)
SMILES	eIF4H inh	CSC inhib	HIV Env fusion	PABP polyA inh	Rce1 inh	UUG fidelity	MT1-MMP act inh	MT1-MMP act inh RFP	others
CCOC(=O)c1c(C)nc(C)c(C(=O)OCC)c1-c1cccc(N)c1	2	1	8	-4	i	4	-2	2
C[C@H](CO)N1C[C@H](C)[C@@H](CN(C)S(=O)(=O)c2cccs2)Oc2c(NC(=O)C3CC3)cccc2C1=O	/	-26	-1	/	/	10	-1	3
CC(=O)Nc1ccc(OS(=O)(=O)c2c(C)cc(C)cc2C)cc1	-8	-1	26	-8	i	1	2	1
Cc1ccc[n+](-c2nc3ccccc3nc2[N-]S(=O)(=O)c2ccccc2)c1	-3	-13	0	-6	i	-20	3	8
Cc1cc(NC(=O)c2ccc3c(c2)OCCO3)ccc1NC(=O)c1cc2ccccc2o1	-4	44	1	2	i	-23	4	-12
CC1Oc2ccccc2N(CC(=O)N2CCCc3ccccc32)C1=O (stereo unspecified)	-2	7	/	3	i	3	0	2
CCN(c1ccccc1)S(=O)(=O)c1ccc(C(=O)NNC(=O)c2ccccc2F)cc1	/	26	4	/	/	-8	0	-7
COc1ccc(NC2CC(=O)N(C(C)C)C2=O)cc1 (stereo unspecified)	-6	15	/	2	i	-10	-1	0
COc1ccc2c(CC(=O)Nc3ccc(N4CCOCC4)cc3)coc2c1	-5	12	0	-6	i	/	2	5
CS(=O)(=O)NCCCNc1ccc(Cl)cc1[N+](=O)[O-]	-10	8	-220	4	i	-2	15	0
CCc1nnc(NC(=O)CSc2nnc(-c3ccc(OC)cc3)n2C)s1	-5	-6	-22	2	i	-14	-1	6
CN(C)n1cccc1/C=C(\C#N)S(=O)(=O)c1ccc(Cl)cc1	-6	26	7	-1	i	-23	-3	-4
Cc1ccccc1NC(=O)CSc1nnc(CNC(=O)c2ccc3c(c2)OCO3)n1C	-2	-8	1	10	/	-13	1	0
S=C(NCCCN1CCOCC1)N1CCOCC1	-7	-13	2	-4	i	/	3	1
COc1ccc(S(=O)(=O)N2CCCCCC2)cc1C(=O)NCCOc1ccc(C)cc1	/	/	18	/	i	-7	-17	-12
CCc1nc2ccc(C(=O)N(C)CCN(C)C)cn2c1N(CC)CCOC	/	/	-7	/	/	-14	-1	4
CCCNC(=O)c1cccc(COCC(F)(F)C(F)F)c1	-12	-10	/	-6	i	-7	-1	3
CC(C)CC(=O)Nc1nnc(SCC(=O)Nc2nccs2)s1	-1	-3	/	-4	i	8	2	2
CN1C(=O)NC(c2cccc(F)c2)C2=C1CC(C)(C)CC2=O (stereo unspecified)	-3	-13	-11	12	i	-10	1	4
CCOc1ccccc1NC(=O)Cc1cccs1	32	-3	-2	4	i	-12	-1	-3
Cc1ccccc1C(=O)N1CCN(S(=O)(=O)c2ccccc2)CC1	-12	-1	3	-8	i	-16	-4	-1
CCCc1cc(=O)oc2cc(OCC(=O)N3CCN(C(=O)C4COc5ccccc5O4)CC3)ccc12 (stereo unspecified)	-11	-9	2	-11	i	4	-1	-6
CC(C)[C@H](NC(=O)c1ccccc1)C(=O)OCC(=O)Nc1sccc1C(N)=O	/	1	15	/	/	-9	0	-2
Cc1sc2nc(C3CC3)nc(N3CCN(C(=O)c4ccccc4F)CC3)c2c1C	-7	/	14	-3	i	-16	-4	-7
Cc1ccsc1CN(C(=O)c1ccc([N+](=O)[O-])cc1)C1CCS(=O)(=O)C1 (stereo unspecified)	-10	-9	-1	13	i	-3	1	1
O=C(NCCc1ccccc1F)C1CCCN1S(=O)(=O)c1ccccc1 (stereo unspecified)	1	-5	/	-4	i	-14	-1	-3
O=C(COc1ccc(CNC[C@H]2O[C@@H](n3ccc(=O)[nH]c3=O)[C@H](O)[C@@H]2O)cc1)Nc1ccccn1	/	/	-15	/	/	2	1	4
